# Bioassay records: PubChem, National Center for Advancing Translational Sciences (NCATS)
# VACV Venus inh: inhibitors of vaccinia virus (Venus reporter); Potency, µM (titrated, usually from 36.5 µM), for the others: at the top dose activity change, negative = inhibition, usual class: inhibitors; Vaccinia virus Venus reporter expression, fluorescence; actives 0.46% (n = 330,000); active means well fitted inhibition curve with a large enough effect; inconclusive means small, poorly fitted or top-dose-only effect; inactive means no such curve, though single readings can be large or run the other way; tested in A549 cells; also: nearly all actives have a fitted effect of over 30% in size; inactives centre near -10
# VACV mCherry inh: inhibitors of vaccinia virus infection (mCherry reporter signal). Potency, µM (series often up to 36.5 µM), for the others: at the top dose activity change, negative = inhibition, actives largely listed as inhibitors. AID 720579. Vaccinia virus mCherry reporter infection, fluorescence; about a quarter of the inactives have no number. actives 0.63% (n = 310,000); active = well fitted inhibition curve with a large enough effect; inconclusive = small, poorly fitted or top-dose-only effect; inactive = no such curve, though single readings can be large or run the other way; tested in A549 cells; also: nearly all actives have a fitted effect of over 35% in size; inactives centre near -10
# An asterisk follows results filed as active; i = inactive; ? = inconclusive; . = no result given; & = joins results of further samples; [ ] = dose if it differs, or a comment. % is scaled to controls: 0 for no effect and ±100 for the full control effect; potency is read from the fitted curve at half-maximal effect.
item	SMILES	VACV Venus inh	VACV mCherry inh
1	CCCc1[nH]n(-c2nc3ccccc3s2)c(=O)c1C=NCC(C)C	?	.
2	O=C(Cc1n[nH]c(=O)c2ccccc12)N/N=C/c1cc2c(cc1Cl)OCO2	4%	-10%
3	CC1CCCN(S(=O)(=O)c2ccc3[nH]c4c(c3c2)CCCC4)C1 (configuration not stated)	-22%	?
4	C[C@]12CCC3C(CC[C@@H]4[C@H]5O[C@H]5CC[C@]34C)C1CC[C@@H]2O (some centres not stated)	7%	-28%
5	O=C(OC(C(=O)Nc1cccc(C(F)(F)F)c1)c1ccccc1)C1CCCCC1 (configuration not stated)	-18%	i
6	Cc1cc(=O)oc2cc(NC(=O)Cc3ccccc3)ccc12	2%	i
7	Cc1ccc(OCc2nc3ccccc3[nH]2)cc1	-22%	i
8	COc1cc(CNC2CCCCCC2)cc(OC)c1O	-12%	i
9	CSc1ccc2[nH]c(=O)cc(C)c2c1	-23%	.
10	Nc1ncc(S(=O)(=O)Nc2ccc(OC(F)(F)F)cc2)cn1	-3%	-5%
11	O=C1NC(=S)SC1=Cc1cc(Br)ccc1O	i	67%[activator]
12	COc1cc(NC(=O)c2cc(-c3ccccc3O)no2)cc(OC)c1OC	-30%	-24%
13	N#CC1CC(c2ccccc2)Nc2cc(Cl)ccc2N1 (configuration not stated)	?	-23%
14	COCC(C)n1c(SCc2nc(N)nc(Nc3ccccc3C)n2)nc2ccccc2c1=O (configuration not stated)	-20%	-29%
15	CCOC(=O)N1CCN(C(=O)CN(C)S(=O)(=O)c2ccc(OC)c(OC)c2)CC1	-10%	-10%
16	O=C(/C=C/c1ccc(N2CCCCC2)c([N+](=O)[O-])c1)c1ccc(S(=O)(=O)N2CCCC2)cc1	-12%	-4%
17	Cc1cc(F)ccc1S(=O)(=O)Nc1ccccc1C(=O)Nc1ccccc1-c1nc2ccccc2[nH]1	?	?
18	Cc1oc2cc3oc(=O)c(CCC(=O)NCCCn4ccnc4)c(C)c3cc2c1C	-26%	?
19	Cc1cccc(OCC(=O)NNC(=O)Nc2cccc(Cl)c2)c1C	2%	-9%
20	CCOc1ccc2[nH]c(=O)c(CN(CCN3CCOCC3)Cc3nnnn3C(C)(C)CC)cc2c1	-6%	-17%
21	O=C(NC1CCCc2ccccc21)C1CCN(S(=O)(=O)c2cccc3nonc23)CC1 (configuration not stated)	-15%	.
22	CC(=O)c1cccc(N(C(=O)c2ccco2)C(C(=O)NC2CCCC2)c2ccccc2F)c1 (configuration not stated)	-11%	0%
23	CCOC(=O)CN1C(=O)N[C@@H](c2cccc(C(F)(F)F)c2)[C@H](C(C)=O)[C@H]1C	-12%	i
24	CCN(CC)C(=O)CSc1nc2c(c(-c3cccnc3)c1C#N)CCCC2	-13%	-4%
25	CNC1(c2nnnn2-c2c(C)cccc2C)CCOC(C)(C)C1 (configuration not stated)	-2%	-12%
26	Cc1cc(C)cc(N2C(=O)C3NN=C(C(=O)OCc4ccccc4)C3C2=O)c1 (configuration not stated)	-6%	-6%
27	CCOC(=O)[C@]12CCCC=C1N(Cc1ccccc1)C(=O)[C@H](CC(=O)NCc1cccc(C(F)(F)F)c1)C2	?	?
28	COc1cc(=O)n2c(c1C(=O)N(C)Cc1ccsc1)CCN(Cc1c(C)nc3sccn13)CC2	-14%	i
29	O=c1c2cc(N3CCOCC3)ccc2[nH]c(=S)n1CCc1ccccc1	-8%	-17%
30	CS(=O)(=O)N1CCN(C(=O)COc2ccc3ccccc3c2)CC1	-13%	i
31	CCOc1cc(CNCCc2ccccc2)ccc1OCC(=O)NC(C)(C)C	-18%	-19%
32	O=C(Cn1cc(S(=O)(=O)Cc2ccc([N+](=O)[O-])cc2)c2ccccc21)N1CCOCC1	-6%	-10%
33	NC(=O)CC(NC(=O)c1ccc(Br)cc1)c1ccc(N2CCCCCC2)c([N+](=O)[O-])c1 (configuration not stated)	-20%	?
34	Cc1[nH]c(=O)nc2c1CCC2	-19%	-26%
35	O=C1CN(C(=O)c2ccc(S(=O)(=O)N3CCCC3)cc2)C(c2ccccc2)c2cc(F)ccc2N1 (configuration not stated)	-6%	-14%
36	COC(=O)c1cc(Br)c(=O)n(CCN2CCCCC2)c1	-12%	-22%[1.46 µM]
37	CCNC(=O)NC(=O)C(C)Oc1ccc(Br)cc1Br (configuration not stated)	-15%	-10%
38	Cc1ccc(-n2ncc(C(=O)NCCN3CCc4ccccc4C3)c2C2CCN(C(=O)OC(C)(C)C)CC2)cc1	-27%	-16%
39	O=c1[nH]c(=O)c2cc([N+](=O)[O-])cc([N+](=O)[O-])c2[nH]1	-2%	-15%
40	COc1ccc(Cl)cc1NS(=O)(=O)c1cccc(C(=O)NC2CCC(O)CC2)c1 (configuration not stated)	-11%	-11%
41	CCn1nnnc1NC(=O)c1cc(Cl)c(OC)c(Cl)c1	-19%	i
42	Cc1ccc(S(=O)(=O)Nc2ccc3c(c2)CCCN3C(=O)c2cccs2)cc1	-23%	-21%
43	CCN(CC)C(=O)CN(c1ccc(F)c(Cl)c1)S(C)(=O)=O	-12%	.
44	Cc1cnc(C(=O)Nc2ccccc2F)cn1	-10%	-12%[1.46 µM]
45	CCCSc1ncc(Cl)c(C(=O)NCc2ccc(OC)cc2)n1	-16%	-13%
46	CC(C)CC(=O)Nc1nnc(SCC(=O)NC2CCCC2)s1	-7%	i
47	CC[C@@]1(C(=O)OC)N[C@H](CN(C)S(=O)(=O)c2ccc(OC)cc2)[C@@H]2C(=O)N(C)C(=O)[C@@H]21	-5%	-1%
48	COc1ccc(N(CC(=O)NC(C)c2ccccc2)S(=O)(=O)c2c(C)noc2C)cc1 (configuration not stated)	?	?
49	CCOC(=O)N1CCN(CC(O)COCc2ccccc2)CC1 (configuration not stated)	0%	-10%
50	COc1ccc(C(C)=O)cc1CC(=O)NC1CCCCCC1	-6%	18%

# (cont.)
item	SMILES	VACV Venus inh	VACV mCherry inh
51	CC[n+]1c(/C=C(\C)OC)sc2ccccc21	-8%	-11%
52	COc1ccccc1NC(=O)NCc1ccco1	-19%	-12%
53	CC1=C(C(=O)Nc2ccc(C)cc2)C(c2ccco2)NC(=O)N1 (configuration not stated)	-8%	.
54	Cc1ccc(CNC(=O)COC(=O)C2CCN(S(=O)(=O)c3cccs3)CC2)cc1	-3%	i
55	Cc1cc(C)c2oc(C(=O)Nc3ccc(S(=O)(=O)Nc4nccc(C)n4)cc3)cc(=O)c2c1	2%	9%
56	CC1=C(C(=O)OCc2cc(C)on2)N2C(=O)[C@@H](NC(=O)OCc3cc(C)on3)[C@H]2SC1	-3%&-9%	-3%&-13%
57	COc1cc(/C=C2\SC(N)=NC2=O)cc(OC)c1	-21%	?
58	CS(=O)(=O)N(CC(=O)N1CCN(c2ccccc2F)CC1)C1CCCCC1	1%	-15%
59	CCCCCO	-12%	-2%
60	O=C(OCCCN=C1NS(=O)(=O)c2ccccc21)c1ccccc1	-7%	-18%
61	CN(C)C(Cc1ccccc1)C(=O)c1ccccc1 (configuration not stated)	-24%	-14%
62	O=C(Cc1ccccc1[N+](=O)[O-])NCc1ccc2c(c1)OCO2	1%	i
63	COc1ccc(-n2nnc(-c3nsc(NC(=O)c4cccs4)n3)c2C)cc1OC	-4%	-8%
64	COC(=O)C1=C(C(=O)c2ccccc2)C(c2ccc(OC)c(OC)c2)Nc2nnnn21 (configuration not stated)	-5%	i
65	CCC1(C2CCN(C(=O)c3cc(F)ccc3F)CC2)NC(=O)N(CCc2scnc2C)C1=O (configuration not stated)	21%	-5%
66	CN(Cc1ccccc1)C(=O)c1cccc(NC(=O)Cc2ccc(NC(=O)C3CCCN(C(=O)C4CCCC4)C3)cc2)c1 (configuration not stated)	-4%	-11%
67	CCN1CCN(C(=O)c2ccc(CN(c3ccccc3)S(=O)(=O)c3ccccc3)cc2)CC1	-12%	-22%
68	COC(=O)Cn1cnc2c1c(=O)n(C)c(=O)n2C	-4%	-4%
69	c1ccc2nc3[nH]cnc3nc2c1	-2%	i
70	CCOC(=O)c1c(NC(=O)CCC(=O)N2CCOCC2)sc2c1CC(C)(C)OC2	3%	16%
71	CCc1ccc(CN(Cc2ccco2)c2cnc(S(C)(=O)=O)nc2C(=O)Nc2cccc(C)c2)cc1	-13%	-17%
72	CC1=C(C(=O)N2CCN(c3cccc(C)c3C)CC2)C2(CCCCC2)OC1=O	-10%	i
73	COc1cc(NC(=O)CSc2nnc3c(C)cc4c(C)ccc(C)c4n23)c(C(=O)O)cc1OC	-9%	i
74	Cc1c(/C=N/NC(=O)c2cc(Br)ccc2O)c(=O)n(C)c(=O)n1C	6%	-14%
75	CC(=O)Nc1ccc(-c2csc(NC(=O)Cc3ccccc3F)n2)cc1	-15%	?

# Single entries from the list.
# VACV Venus inh with cpd 69 reads -2%
# VACV Venus inh with cpd 75 reads -15%
# VACV Venus inh with cpd 73 reads -9%

# The list continues:
item	SMILES	VACV Venus inh	VACV mCherry inh
76	O=C(/C(C=Nc1cccc(C(F)(F)F)c1)=C(/O)c1ccco1)C(F)(F)F	-6%	-3%
77	CC1CC2=C(NC(=S)NC2c2ccc(F)cc2)/C(=C/c2ccc(F)cc2)C1 (configuration not stated)	-15%	-1%
78	Cc1cc(NC(=O)OC2CCCCC2)ccc1[N+](=O)[O-]	8%	-21%
79	COC(=O)C1(C(=O)OC)C[C@H](c2ccc(OC)cc2)N(Cc2ccccc2OC)[C@@H]1c1cccs1	5%&17%	-28%
80	Cc1cccc(N2Cc3ccc(Br)cc3C2)c1	-6%	-7%
81	CCN(CC)S(=O)(=O)c1cc(NC(=O)C2=COCCO2)ccc1Cl	-15%	-2%
82	C/C=C(\C)C(=O)NCCN1C2=NC[C@@H](C)N2C[C@@H]1Cc1ccc(OC)cc1	-10%	i
83	CCc1ccc2c(c1)NC(c1ccc(C)cc1)=NC(c1cccs1)=N2	-15%	2%
84	COCCNC(=O)Cc1c(C)c2c(cc(C)c3c(C(C)(C)C)coc32)oc1=O	?	?
85	Clc1cccc(Cl)c1Cn1nnc(N2CCCC2)n1	-6%	i
86	COc1cc(OC)cc(C(=O)NCC(=O)OCC(=O)Nc2ccc(C)c(S(=O)(=O)N3CCOCC3)c2)c1	-11%	-8%
87	O=C(c1c[nH]c(C(=O)C(Cl)(Cl)Cl)c1)c1c(F)cccc1F	-12%	-10%
88	C/C(=N\Nc1ccc(S(N)(=O)=O)cc1[N+](=O)[O-])c1ccc2c(c1)OCO2	?	-13%
89	CC(=O)Nc1cccc2ncccc12	-13%	i
90	COc1ccc(CNC(=O)Cn2ncc3c(=O)oc4ccc(C)cc4c32)c(OC)c1	-7%	-14%
91	Cc1ccccc1OCC(=O)N/N=C/c1cccc(Oc2ccc([N+](=O)[O-])cc2[N+](=O)[O-])c1	?	?
92	Cc1ccccc1CNC(=O)CCCn1nc(C)c2sc3ccccc3c2c1=O	-3%	-17%
93	NS(=O)(=O)c1ccc(S(=O)(=O)N(Cc2ccccc2F)CC2CCCO2)cc1 (configuration not stated)	-8%	0%
94	CCOC(=O)CC1C(=O)NCCN1C(=O)c1ccc(F)cc1F (configuration not stated)	-10%	.
95	Cc1cccc(C(=O)Nc2sc(C)c(-c3ccccc3)c2C#N)c1	-20%	-5%
96	COc1ccc(/C=C(\C#N)C(=O)OCC(=O)NCc2ccccc2)cc1	-7%	-9%
97	COc1cc(CCCN2C(=O)C(=O)NC[C@H]2Cc2cccc3ccccc23)cc(OC)c1OC	-16%	-6%
98	CCCNC(=O)/C=C/C(=O)O	-1%	-5%
99	Cc1ccn2c(c1)nc(=O)c1cc(S(=O)(=O)N3CCCCC3)ccc12	-3%&-5%	-13%&-5%
100	CCN(CC)S(=O)(=O)c1ccc2oc(C(=O)Nc3ccc(OC)cc3OC)c(C)c2c1	-15%	-6%

# Continued; it opens with the 2 that closed the last part.
item	SMILES	VACV Venus inh	VACV mCherry inh
99	Cc1ccn2c(c1)nc(=O)c1cc(S(=O)(=O)N3CCCCC3)ccc12	-3%&-5%	-13%&-5%
100	CCN(CC)S(=O)(=O)c1ccc2oc(C(=O)Nc3ccc(OC)cc3OC)c(C)c2c1	-15%	-6%
101	CCc1cccc(NC(=O)c2oc3ccc4c(c3c2C)C(=O)CC(C)(C)O4)c1	-8%	-10%
102	O=S(=O)(NCC(c1ccco1)S(=O)(=O)c1cccs1)c1ccc(F)c(C(F)(F)F)c1 (configuration not stated)	-22%	-21%
103	COc1cc(CC(=O)OCn2nnc3ccccc3c2=O)cc(OC)c1OC	-15%	-1%
104	Cc1ccc(Cn2c(=O)c3ccccc3n3c(-c4cccc(O)c4)nnc23)cc1	-12%	-20%
105	COc1ccc(OC)c(/C=C(\NC(=O)c2ccccc2)C(=O)N/N=C/c2ccc(C)s2)c1	6%	-22%
106	COc1ccc(NC(=O)c2cccnc2SC)cc1OC	-21%	i
107	Cc1ccc(C(C#N)c2ccc(C(=O)c3ccc(F)cc3)cc2)cc1 (configuration not stated)	?	-15%[1.46 µM]
108	Cn1c(=O)[nH]c(NC2CCCCC2)c([N+](=O)[O-])c1=O	-3%	i
109	CCCCn1c(SCC(=O)/C(C#N)=C(\C)N)nc2ccccc2c1=O	-23%	?
110	COc1ccc(C(=O)OCC(=O)NC2CC2)cc1S(=O)(=O)Nc1ccc(C)cc1	-7%	-15%
111	COc1ccc(C(=O)Nc2c(Cl)cc(Cl)cc2C(=O)N2CCC(C)CC2)cc1	-12%	i

# Gathered by group: the compounds so far containing a tert-butyl group
item	SMILES	VACV Venus inh	VACV mCherry inh
31	CCOc1cc(CNCCc2ccccc2)ccc1OCC(=O)NC(C)(C)C	-18%	-19%
38	Cc1ccc(-n2ncc(C(=O)NCCN3CCc4ccccc4C3)c2C2CCN(C(=O)OC(C)(C)C)CC2)cc1	-27%	-16%
84	COCCNC(=O)Cc1c(C)c2c(cc(C)c3c(C(C)(C)C)coc32)oc1=O	?	?

# No enrichment for hits; about 0.82% have a hit in one of these screens.
